# Bioassay records (PubChem BioAssay)
# RanGTP-Imp inh = inhibitors of RanGTP-importin-beta interaction, primary screen, biochemical, FRET, CFP-Ran, YFP-importin-beta, homogeneous | 1.1% of 300,000 active | Ran GTPase (GTP-bound) - importin-beta complex | AID 2216, 2009 | inhibition, % (concentration not given with the values) | cell-free CFP-Ran/YFP-importin-beta FRET ratio;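 active = most replicates above 15%; inconclusive = exactly half above 15%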;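 note: 0% = DMSO wells and 100% = Ran loaded with GDP instead of GTP; wells of about 40 µL received 100 nL stock; the first replicate is given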
# A1 inh = caspase 3/7 activation in MEF A1-2A-BIM cells, primary screen, A1 inhibitor project, cell-based, luminescence, HTS. 0.066% of 330,000 active. Caspase-Glo 3/7 luminescence, 3 h; percent of clofoctol response, vehicle zero. AID 2462, 2010. caspase activation, % (concentration not given with the values);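 active = over half of replicate activation scores above 10%, or exactly half above 10 with the replicate mean above 10; inconclusive = replicate mean below 10 yet half the replicates above 10; inactive = over half of replicates below 10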;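 note: wells of about 30 µL received 50 nL stock; many hits fall short of the cut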
# T cruzi repl = inhibitors of intracellular T. cruzi growth, primary screen, luminescence, NIH3T3 host cells; T. cruzi beta-gal in NIH3T3, 90 h; inhibition, % (test concentration not listed); 1.4% of 300,000 active;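 active = mean inhibition across valid replicates above about 55%, limit read from the data; inconclusive = mean below that limit but half or more replicates reach it; inactive = mean below it, under half of replicates reach it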;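 note: signal also drops with host cell toxicity which is not excluded here; 0% = plate median of DMSO wells and 100% = zero luminescence signal; higher percent means less beta-gal luminescence so fewer parasites; stock transfer was 50 nL into about 50 µL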
# LANA-H2B inh = blockers of LANA interaction with H2A/H2B – biochemical, FP readout, HTS, primary screen; cell-free LANA-H2A/H2B peptide, fluorescence polarization; inhibition, % (concentration not given with the values); 0.6% of 320,000 active; in the data active = inhibition mostly above about 10%, no sharp cut-off; inactive = mostly below about 6.7%;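 note: stock transfer was 7.5 nL into about 10 µL; 0% = median of vehicle wells and 100% = median of positive control wells; one replicate is shown; the record names a cut of 25% in any replicate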
# Beta cell apopt = inhibitors of cytokine-induced beta cell apoptosis, primary screen, luminescence; INS-1E cytokine-induced death, ATP luminescence, 48 h; percent of positive-control rescue, neutral wells zero; protection from apoptosis, % (concentration not given with the values); 0.8% of 300,000 active;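 active = all replicates at 75% or more, or half of them and the mean; inconclusive = half reach 75% but not the mean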;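 note: 0% = cytokine-treated negative control wells and 100% = positive control rescue; higher means more ATP so stronger rescue from cytokine killing; wells of about 40 µL received 100 nL stock; the first replicate is given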
# Calb FLC = C. albicans growth inhibition with fluconazole, primary screen, CaCi-2 strain, Alamar Blue fluorescence. 0.57% of 300,000 active. growth inhibition, % (test concentration not listed). C. albicans CaCi-2 (fluconazole-resistant clinical isolate) + fluconazole, 48 h;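 active = most replicates above 75%; inconclusive = exactly half above 75%; inactive = most below 75%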;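 note: all wells also contain fluconazole at 8 µg/ml as a sub-toxic cotreatment; 0% = median of DMSO wells and 100% = median of geldanamycin control wells; wells of about 8 µL received 7.5 nL stock; the first replicate is given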
# AF4-AF9 inh = inhibitors of AF4 peptide binding to AF9, primary screen, biochemical, AlphaScreen, biotin-AF4 peptide, FLAG-AF9, single point; Protein AF-9 (Homo sapiens), P42568; inhibition, % at 10 µM; 0.47% of 350,000 active;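 active = every replicate reaching a set inhibition limit, whatever the replicate mean, cut at about 25% in these data; inconclusive = mean inhibition reaches that limit but some replicates miss it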;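 note: 0% = plate neutral control median and 100% = total signal loss; the record names both 10 and 1 µM as test concentration; the first replicate is given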
# Target sequence (P42568 whole entry, looked up): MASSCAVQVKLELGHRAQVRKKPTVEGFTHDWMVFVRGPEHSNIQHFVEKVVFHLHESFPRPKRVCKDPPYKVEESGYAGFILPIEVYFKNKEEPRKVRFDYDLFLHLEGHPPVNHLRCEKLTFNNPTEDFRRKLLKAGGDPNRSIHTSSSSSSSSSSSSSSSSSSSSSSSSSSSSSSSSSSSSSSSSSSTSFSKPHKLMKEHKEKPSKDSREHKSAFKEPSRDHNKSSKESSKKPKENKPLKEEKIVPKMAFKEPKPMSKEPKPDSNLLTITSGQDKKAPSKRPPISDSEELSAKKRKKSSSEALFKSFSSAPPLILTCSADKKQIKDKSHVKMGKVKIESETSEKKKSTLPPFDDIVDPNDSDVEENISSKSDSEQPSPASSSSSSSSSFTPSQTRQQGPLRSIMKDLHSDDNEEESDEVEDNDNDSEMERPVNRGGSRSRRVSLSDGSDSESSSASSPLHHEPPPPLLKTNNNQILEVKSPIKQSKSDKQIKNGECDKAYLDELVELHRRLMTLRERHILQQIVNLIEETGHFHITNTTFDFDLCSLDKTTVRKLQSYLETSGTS
# Vif A3G = inhibitors of Vif binding to APOBEC3G peptide, primary screen, biochemical, TR-FRET, GST-Vif 1-94, biotin-A3G peptide, dose response retest (AID 1117319); Virion infectivity factor (Human immunodeficiency virus type 1 group M subtype B (isolate …; TR-FRET GST-Vif / biotin-A3G peptide binding; higher % means a stronger effect; test concentration not given here; strong numbers were not always called active; one-dose inhibition, %; IC50 in µM for titrated hits; 0.57% of 260,000 active;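 active = above the screen mean plus three standard deviations and confirmed in dose response; inconclusive = results disagree or hit not tested in dose response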;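 note: Vif residues 1-94 fused to GST binding biotinylated APOBEC3G peptide 110-148; 0% = full assay without inhibitor and 100% = GST in place of GST-Vif; retest series ran down from 100 µM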
# Active calls of the source: *; ? = inconclusive; · = no result given; & = joins results of further samples.
SMILES,RanGTP-Imp inh,A1 inh,T cruzi repl,LANA-H2B inh,Beta cell apopt,Calb FLC,AF4-AF9 inh,Vif A3G
CCOP(=O)(OCC)c1nc(/C=C/c2ccccc2)oc1NCc1ccccc1,1.9,-0.9,20,-1.9,-5,30,·,-2%
Cc1cc(/C=N/Nc2nc(N)ncc2[N+](=O)[O-])c(C)n1-c1ccccc1F,0.3,-15,-6,-2.0,0,4,·,2%
O=C1CCCN1c1ccc(S(=O)(=O)N2CCN(c3ccccn3)CC2)cc1,-3.3,0.0,-13,6.0,-1,-6,·,-4%
COc1ccc(N(CC(=O)Nc2cccc(OC)c2)S(=O)(=O)c2c(C)nn(C)c2C)cc1,·,0.1,·,0.8,3,·,·,3%
COC(=O)CCC(NC(=O)OCc1ccccc1)C(=O)NC(CC(C)C)C(=O)OC (stereo not given),3.2,0.5,-11,2.7,-6,5,·,0%
CN(C)CCCNC(=O)COc1ccc(Br)cc1Cl,3.4,0.1,43,-9.4,-7,-3,-0.5,2%
Cc1cccc(NC(=O)c2cc(-c3ccco3)nc3ccccc23)n1,-1.3,-0.4,-12,-1.2,-9,-6,·,21%
Cc1nn(-c2ccccc2)c(C)c1NC(=O)COc1cc(F)ccc1[N+](=O)[O-],·,0.3,·,-2.0,8,·,-3.8,·
O=C(O)C1CCCCC1C(=O)Nc1ccccc1Nc1ccccc1 (stereo not given),-0.1,-1.2,4,-0.8,-15,-2,·,20%
O=C(OCC(=O)C12CC3CC(CC(C3)C1)C2)c1cnccn1,4.7,-0.8,-18,0.7,-4,17,-3.5,·
O=C(O)C1Sc2[nH]c(=O)sc2C2c3cc(Cl)ccc3OC(=O)C12 (stereo not given),5.0,-0.2,-23,1.3,-5,6,·,19%
CCOC(=O)C(=O)Nc1sc(C(=O)N2CCOCC2)c(C)c1C#N,1.4,-1.5,2,5.1,-6,-9,-23,1%
COc1ccc(/C=C(/C(=O)NCc2ccccc2)c2ccccc2)cc1,-1.6,0.6,28,3.7,5,41,6.1,·
COc1ccc2cc(-c3ccccc3F)ncc2c1,·,-13,·,-3.4,5,·,-3.7,·
CC(=O)c1c(C)[nH]c(C(=O)CSc2nc3ccc(C)cc3[nH]2)c1C,-4.5,0.5,11,-6.8,-15,11,·,4%
CC1CN(S(=O)(=O)c2ccc(C(=O)Nc3ccc(S(=O)(=O)Nc4nccs4)cc3)cc2)CC(C)O1 (stereo not given),5.7,-0.3,11,7.0,-13,-7,-1.8,2%
CC[N+](CC)(CCO)CCCN1C(=O)C2CC=C(Cl)CC2C1=O (stereo not given),-0.6,-0.2,-9,-3.0,-1,-1,·,-4%
C[C@H]1[C@H](C)CC[C@]2(C)CC[C@]3(C)C(=CC[C@@H]4[C@@]5(C)CC[C@@H](O)[C@](C)(C(=O)O)[C@@H]5CC[C@]43C)[C@H]12,-4.0,0.3,1,-5.0,-4,·,·,·
CCOc1ccc(C(=O)NC(=S)Nc2ccc(NC(=O)c3ccco3)c(C)c2)cc1[N+](=O)[O-],3.0,0.8,6,-5.2,7,1,·,6%
CC(=O)Nc1ccc(S(=O)(=O)NCCC(=O)N2CCCCC2)cc1,0.7,0.2,6,0.2,-2,9,-1.3,3%
O=C(Cc1cccs1)NCc1ccc2c(c1)OCO2,1.8,-0.2,-4,2.8,·,?,·,5%
O=C(N/C(=C/c1cccnc1)C(=O)N1CCOCC1)c1ccccc1F,8.1,0.3,-10,-2.5,-7,-3,·,·
Cn1ncc2c(Nc3ccc4ccccc4c3)ncnc21,0.3,0.1,-22,7.4,-2,6,-8.9,75%
CCc1ccc(CNC(=O)Cn2nc(-c3ccc(C)cc3)ccc2=O)cc1,-8.1,1.0,4,-6.3,-12,8,·,·
C[C@H]1C=C(C(=O)N2CCOCC2)O[C@@H](OCc2ccc(CO)cc2)C1,1.2,2.1,-30,-5.6,2,-12,3.3,·
C=CCN(C(=O)CCC(=O)Nc1cc(C)on1)C(C(=O)NC(C)(C)C)c1cccc(OC)c1OC (stereo not given),-1.6,2.6,2,2.4,-1,-1,·,-9%
OC(CN1CCN(c2ccccc2)CC1)Cn1c2ccccc2c2ccccc21 (stereo not given),0.2,0.5,20,1.8,0,-3,·,12%
CNC(=O)c1nn(-c2ccc(C)cc2)ccc1=O,?,-0.1,-7,0.5,3,3,·,22%
S=C(NCc1ccc2c(c1)OCO2)Nc1ccc2nsnc2c1,-14,-0.1,3,-11,·,12,-3.4,-51%
Cc1cc(/C=C2\SC(=O)N(C)C2=O)c(C)n1-c1ccc(O)cc1,-2.5,-0.9,4,5.3,6,13,9.8,·
CCOC(=O)C1=C(C)NC(=O)NC1c1ccc(OCC(=O)OC)c(OC)c1 (stereo not given),0.7,0.4,·,-2.0,3,1,·,21%
Cc1cc(C(=O)CNCc2ccco2)c(C)n1-c1ccc(F)cc1,7.2,0.0,21,0.3,12,-15,·,12%
NC(=O)c1ccc(NC(=O)CS(=O)(=O)c2cn(CC(=O)N3CCCCC3)c3ccccc23)cc1,0.9,0.9,-15,3.5,-2,-3,-2.0,·
COc1ccc(S(=O)(=O)N(C)CC(=O)N2CCN(Cc3ccccc3)CC2)cc1C,1.3,-0.3,-5,0.2,-8,2,·,-4%
Cc1ccc(/C=N/Nc2nncc(-c3ccccc3)n2)o1,-0.5,-1.2,15,2.6,-2,-3,-10,-5%
COCc1nc2ccccc2n1Cc1ccc(Br)cc1,-5.4,0.1,-6,-1.7,-7,-3,·,2%
Cc1ccc(-c2cc3nc(C)cc(C)n3n2)cc1,-0.2,-4.0,-19,-0.4,-3,26,-2.2,-2%
CCCCCCC/C(C)=N/NC(=O)CC(=O)NCCc1ccccc1,-0.1,0.2,-13,0.3,0,-1,·,22%
COc1ccccc1OCCNC(=O)C(CCSC)NC(=O)COc1ccccc1 (stereo not given),·,1.5,·,-1.2,-2,·,3.4,-13%
C/C(=N\NC(=O)NC1CCCCC1)C1CCCCC1,-1.5,-0.1,-2,-4.7,-7,-6,-29,-11%
CC(C)NC(=O)c1ccc(-c2ccccc2C(F)(F)F)o1,-19,-0.2,14,2.0,7,-5,·,-8%
OCCC1CN(Cc2cccc3c2OCO3)CCN1C1CCCCC1 (stereo not given),-0.1,-0.3,-20,2.8,-3,-8,1.3,4%
COc1ccc(CC(=O)Nc2sc3c(c2C(N)=O)CCCC3)cc1,3.5,-0.4,1,-3.7,-3,-1,-7.1,-5%
COc1ccc(-c2c3c(cc4ncn(Cc5ccccc5)c24)COC3=O)cc1,·,0.3,·,-0.1,17,·,7.1,·
COCCCNc1nnc(Cc2ccc(Cl)cc2)c(=O)[nH]1,6.8,0.9,-7,-3.6,·,11,0.8,·
COc1ccc(-c2noc(CN(C(=O)c3ccc4c(c3)OCO4)C(C)C)n2)cc1OC,?,1.0,8,·,-1,4,-0.4,4%
COc1ccc(C(=O)CCS(=O)(=O)c2ccc(F)cc2)cc1OC,?,0.5,-28,-2.9,-16,-16,1.2,·
c1cnc2ccc(-c3ccc4ncccc4c3)cc2c1,2.7,-5.4,-8,-1.0,4,13,-1.8,·
CCCNC(=O)c1onc(CS(=O)(=O)c2cc(C)cc(C)c2)c1C(=O)NCCC,·,0.4,·,1.6,6,·,-2.3,·
Cc1cccc(OCCOC(=O)c2ccc(F)c(S(=O)(=O)N3CCOCC3)c2)c1,·,0.3,·,1.3,-2,·,0.0,2%
CCS(=O)(=O)c1ccc(C(=O)Nc2ccccc2OC)c(Cl)c1Cl,0.9,-1.2,-11,7.7,-14,12,0.7,-11%
C=CC[C@]12C[C@@H](OC)C(=O)C=C1O[C@@H](c1ccc(OC)c(OC)c1)[C@H]2C,0.2,-0.1,9,1.1,-6,-5,6.4,·
O=C(CCS(=O)(=O)c1ccccc1)Nc1ccccn1,2.3,-0.5,-9,4.4,-13,23,-1.7,·
CCN=C1S/C(=C\c2cn(C(C)=O)nc2-c2ccccc2)C(=O)N1CC,1.1,0.4,28,3.9,3,20,·,-1%
COCCN1Cc2cccc(C(=O)Nc3cccc(OC)c3)c2C1=O,3.7,-1.0,10,-10,1,-3,·,4%
CCOC(=O)c1nn(-c2ccccc2)c2nnc(Cc3ccc(Cl)cc3)c(=O)n12,?,0.4,-14,-8.6,3,-20,·,·
COc1cc(/C=N/O)ccc1OCc1ccc(C(=O)O)cc1,6.3,-0.8,-3,-0.7,-1,-8,·,?
O=C(CSc1ccc(Cl)cc1)Nc1cc(-c2nc3ncccc3o2)ccc1Cl,4.9,-0.1,19,-0.8,6,-2,-0.3,·
CC1CC(C)CN(S(=O)(=O)c2ccc3c(c2)CC(=O)N3)C1 (stereo not given),·,1.2,·,0.9,2,·,0.1,30%
CCN(CCCNC(=O)CCc1nc(-c2ccc(OC)cc2)no1)c1cccc(C)c1,-3.0,-0.4,27,-1.9,-11,-17,·,9%&6%

# Continued.
SMILES,RanGTP-Imp inh,A1 inh,T cruzi repl,LANA-H2B inh,Beta cell apopt,Calb FLC,AF4-AF9 inh,Vif A3G
CC(C)c1ccc(CN(C(=O)c2cccs2)C2CCS(=O)(=O)C2)cc1 (stereo not given),-3.1,0.9,-3,2.0,-4,0,3.4,·
Cc1ccc(CCNC(=O)C2CCC(=O)N(Cc3cccc(F)c3)C2)cc1 (stereo not given),-1.9,-0.3,-7,-5.3,-7,4,-7.2,-2%
COc1ccccc1/C=C/C1(C(=O)NC2CCCC2)CC(=O)N1c1ccc(C)cc1 (stereo not given),-3.4,0.0,14,-4.1,-3,6,·,1%
CC1CCN(C(=O)CSCC(=O)Nc2nc(-c3cccs3)cs2)CC1,0.2,-1.9,-12,-4.0,-8,0,-5.1,11%
CCOC(=O)c1cc2c(=O)n3ccccc3nc2n(C(C)C)c1=NC(=O)c1ccncc1,85*,1.5,9,4.6,2,12,·,5%
COc1ccc(CN2CCN(Cc3ccco3)CC2)c(OC)c1,-0.8,1.0,15,1.2,-5,-10,-12,-1%
CC(C)Oc1ccc(C(=O)Nc2cccc(S(=O)(=O)N3CCCC3)c2)cc1,·,0.8,·,0.5,-3,·,-1.7,3%
COCc1cc(SC2CCCCC2)nc(C)n1,?,-0.1,-5,2.1,-2,-10,-3.7,-5%
COc1cc(C(=O)NCc2nnc(SCC(=O)Nc3ccc4c(c3)OCO4)o2)cc(OC)c1OC,0.5,-2.0,-16,-1.1,0,-2,-1.5,7%
Cc1ccc(S(=O)(=O)Nc2cc(C(=O)NCCN(C)C)ccc2N2CCCCC2)cc1,·,-0.1,·,-0.4,7,·,·,-1%
Cc1cc(C)c2cc(C(=O)N3CCc4ccccc4C3)[nH]c2c1,-1.9,0.2,16,-0.2,-12,3,-0.1,-1%
O=C(NCCOc1ccccc1)c1ccccc1SCC(=O)N1CCCC1,·,0.9,·,2.5,-3,·,-0.9,1%
Cc1ccc(-c2noc(CCC(=O)Nc3ccc(C)cn3)n2)cc1,1.8,-0.6,-2,3.3,-3,-3,·,30%
CN1CCN(c2cnn(-c3ccccc3)c(=O)c2Br)CC1,2.2,0.1,13,-1.1,-7,28,-0.6,·
